Sfp inh – Sfp phosphopantetheinyl transferase inhibition | hit rate 3.5% among 310,000 | Biochemical Sfp PPTase activity, qHTS | Potency, µM, for the others: max response, negative = inhibition, most hits filed as inhibitors | Q9F4F7 | AID 1490; active means well fitted inhibition curve with a large enough effect; inconclusive means small, poorly fitted or top-dose-only effect, or another doubt; inactive means no such curve, though single readings can be large or run the other way;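 further: the enzyme is Sfp with the accession as filed and its product quenches rhodamine fluorescence; potency means the concentration at half of the fitted maximal effect; 0% = enzyme reaction without inhibitor and -100% = no enzyme wells; top concentration of the series not given in the record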
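After 15 min at room temperature with compound, 15 nM Sfp received 5 uM rhodamine-CoA plus 12.5 uM BHQ-2-ybbR (50 mM Hepes pH 7.6, 10 mM MgCl2). Rate came from the fluorescence difference over 30 min, ex 525/em 598 nm.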
ClpP mod – qHTS Assay for Activators of ClpP. Potency, µM (top dose mostly 57.5 µM), for inactives: at the top dose activity change, negative = active. purified B. subtilis ClpP, FRET peptide cleavage, 20 min. hit rate 1.9% among 340,000; active = well fitted falling curve with a large enough effect; inconclusive = small, poorly fitted or top-dose-only effect; inactive = no such curve, though single readings can be large or run the other way; further: potency means the concentration at half of the fitted maximal effect; the source files actives as falling curves though it sought activators and does not explain the sign; nearly all actives have a fitted effect of over 65% in size; many hits overshoot -100%
Target sequence (P80244 whole entry, looked up): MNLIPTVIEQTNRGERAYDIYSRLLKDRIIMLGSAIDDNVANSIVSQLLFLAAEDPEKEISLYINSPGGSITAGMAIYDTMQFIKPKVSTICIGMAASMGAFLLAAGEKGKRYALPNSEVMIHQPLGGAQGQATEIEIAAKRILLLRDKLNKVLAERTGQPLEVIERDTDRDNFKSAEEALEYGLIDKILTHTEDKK
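Buffer: 100 mM Tris/HCl pH8, 100 mM KCl, 0.05% low protease BSA, 2.5% glycerol, 0.01% Tween-20. ClpP 10 microg/mL final; 20 min RT; delta FRET normalized to ADEP and DMSO controls.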
TRPML1 blocker – inhibitors of human TRPML1 channel; Q9GZU1; TRPML1-inducible cells, Ca2+ dye fluorescence, FDSS; active compounds read low; inhibition of EC80 agonist-evoked calcium signal; activity change, negative = inhibition, % (concentration not given with the values); hit rate 0.02% among 390,000; AID 624415; in the data active means activity change below about -50%; inconclusive means about -30% to -50%; inactive means above about -30%;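 further: stimulus is agonist 54-4 at its EC80 concentration; on the % scale 0 is the no-effect control and ±100 the full control effect; the text of the record puts the active cut at -80%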
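TRPML1-DL cells, Tet-induced overnight (~16 h, 37 °C) at 1,500 cells/well, were loaded with Ca8 no-wash dye plus quencher for 45-90 min at room temperature. Compounds were pinned during FDSS kinetic reading; agonist 54-4 at EC80 (4 uM final) then added.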
Menin MLL FP FL – inhibitors of human menin-MLL interaction, wild-type MLL peptide | Fluorescence polarization, fluorescein-MLL peptide displacement from menin | FP activity change, % at 61.4 µM | 290,000 tested, under 10 active | AID 1766; inconclusive = falling polarisation curve, or a change in total fluorescence; inactive = total fluorescence flat and polarisation flat or rising; no compound was filed as active; the % refers to the polarisation; negative = inhibition;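 further: % of control where 0% means no effect; inhibitors lower the polarisation; unlabelled MLL peptide was the positive control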
TRPV1 potentiator – potentiators of human vanilloid receptor 1 (TRPV1); TRPV1-expressing cells, Fluo-8 calcium influx, capsaicin EC20 potentiation; host cell line not named in the record; control for the full effect not named in the record; hit rate 0.02% among 320,000; potentiation, % at 8.33 µM; active means potentiation above 80%; inconclusive means 30% to 80%; inactive means below 30%; further: 0% is about no effect
Target sequence (Q8NER1 whole entry, looked up): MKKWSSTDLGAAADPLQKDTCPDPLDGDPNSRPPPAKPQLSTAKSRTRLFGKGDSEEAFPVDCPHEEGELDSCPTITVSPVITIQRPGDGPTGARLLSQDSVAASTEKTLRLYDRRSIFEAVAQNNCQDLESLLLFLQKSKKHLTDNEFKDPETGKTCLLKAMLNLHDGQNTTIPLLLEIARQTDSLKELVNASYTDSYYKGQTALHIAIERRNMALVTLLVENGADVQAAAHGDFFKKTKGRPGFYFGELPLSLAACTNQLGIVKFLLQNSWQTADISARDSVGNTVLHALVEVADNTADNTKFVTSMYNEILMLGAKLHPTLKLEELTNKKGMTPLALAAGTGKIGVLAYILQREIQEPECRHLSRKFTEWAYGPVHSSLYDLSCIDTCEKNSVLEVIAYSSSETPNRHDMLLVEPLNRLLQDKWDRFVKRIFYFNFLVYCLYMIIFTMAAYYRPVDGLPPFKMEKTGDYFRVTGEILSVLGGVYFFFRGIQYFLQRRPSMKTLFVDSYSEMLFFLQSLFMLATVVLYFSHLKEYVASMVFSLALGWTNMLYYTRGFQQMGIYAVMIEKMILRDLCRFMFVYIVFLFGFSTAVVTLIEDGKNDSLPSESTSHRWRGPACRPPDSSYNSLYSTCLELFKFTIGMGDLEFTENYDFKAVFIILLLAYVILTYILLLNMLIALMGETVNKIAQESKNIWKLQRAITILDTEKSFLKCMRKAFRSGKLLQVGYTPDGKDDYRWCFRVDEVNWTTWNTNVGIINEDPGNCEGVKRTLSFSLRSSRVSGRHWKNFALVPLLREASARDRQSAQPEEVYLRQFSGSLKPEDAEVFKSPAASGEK
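Cells expressing TRPV1 were dye-loaded with Fluo-8 and read kinetically: 10 s baseline, 3 min after compound (agonist portion), then 2 min after EC20 capsaicin (allosteric enhancer portion). Calcium-bound dye fluorescence at 480/520 nm.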
PINK1 modulator – changes PINK1 expression | PINK1 immunofluorescence, high-content cytometry, 24 h | Potency, µM (titrated, usually from 76.6 µM), for inactives: at the highest dose activation (PINK1 increase), usual class: activators | hit rate 0.2% among 410,000; active = well fitted activation curve with a large enough effect; inconclusive = small, poorly fitted or top-dose-only effect; inactive = flat fitted curve, though single readings scatter; cell line not stated here;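 further: potency means the concentration at half of the fitted maximal effect; % of control where 0% means no effect; nearly all actives have a fitted effect of over 65% in size; a mitochondrial uncoupler was the plate control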
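Stable cell line treated 24 h with compounds at 5 concentrations (CCCP controls), then fixed and immunostained for PINK1 plus nuclear and cell stains; PINK1 immunofluorescence quantified by laser-scanning microplate cytometry.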
TRPML1 agonist – activates the human TRPML1 channel; activation, % (test concentration not listed); Q9GZU1; TRPML1-expressing cells, Ca2+ dye fluorescence, FDSS; host cell line not named in the record; reference of the full effect not given here; hit rate 0.12% among 410,000; in the data active = activation above about 50%; inconclusive = about 30% to 50%; inactive = below about 30%; further: 0% is about no effect; the text of the record puts the active cut at 80%
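Tetracycline-induced TRPML1-DL cells are seeded and incubated overnight before loading with a no-wash Ca2+ dye and quencher. Agonist activity is taken from the 110 s fluorescence read following compound pin-transfer on an FDSS, before EC80 54-4 challenge.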
Active calls of the source: *; ? = inconclusive; / = not tested or not shown; & = joins results of further samples; [ ] = another dose, or the depositor's remark.

SMILES	Sfp inh	ClpP mod	TRPML1 blocker	Menin MLL FP FL	TRPV1 potentiator	PINK1 modulator	TRPML1 agonist
CN(CCc1ccccn1)c1ncnc2[nH]ncc12	2%	-2.1%	-6	3.3	4	-1.6%	-0.8
CCN(CC(=O)Nc1c(F)cccc1F)C(=O)c1ccc(OCC(=O)N2CCOCC2)c(OC)c1	/	/	2	/	/	2.5%	0.9
CCN(CC)c1ccc(NC(=O)c2cnn3c(C(F)F)cc(-c4ccccc4)nc23)cc1	/	0.3%	76	/	/	1.8%	-0.6
COc1ccc(CN(C)CC(=O)Nc2cc(OC)c([N+](=O)[O-])cc2C)c(OC)c1	1%	-0.7%	9	5.7	9	-0.3%	3.3
Cc1noc(C)c1S(=O)(=O)N(C)C[C@H]1OCc2cnnn2CCCC(=O)N([C@H](C)CO)C[C@@H]1C	/	1.2%	-18	/	/	0.5%	-0.4
Cc1cc(C(=O)CSc2nncs2)c(C)n1Cc1ccco1	-14%	/	5	7.0	0	0.5%	5.0
S=c1[nH]c2ccc3ccccc3c2[nH]1	-4%	/	-4	-3.2	4	-0.5%	0.4
COc1ccc(/C=N/N(C)C2=NS(=O)(=O)c3ccccc32)cc1	12%	0.6%	-3	-1.5	24	13%	-1.1
Cc1ccc(NC(=O)c2cccnc2)c([N+](=O)[O-])c1	-6%	-0.4%	-22	6.7	16	3.5%	-0.2
O=C1OCCN1C(=O)[C@H]1[C@H](c2ccc(F)cc2)C(c2ccc(F)cc2)=NN1c1ccccc1	25%&16%	-10%	3	?	16	-1.4%	3.9
Cc1oc2nc(SCC(=O)NC3CCCCC3)nc(N)c2c1C	/	-2.5%	5	/	/	0.5%	1.5
N#C/C(=C\c1c(N2CCCCC2)nc2ccccn2c1=O)C(=O)NCc1ccco1	8%	-24%	-4	6.5	-3	7.7%	2.2
Cc1ccc(-c2nn(C)c(=O)c3ccccc23)cc1CNC(=O)c1ccco1	9%	-1.7%	-1	0.0	10	-1.2%	0.2
N#C/C(=C(/O)CCCl)c1ccccn1	-20%	3.5%	1	-1.8	-1	1.5%	0.0
CC(C)(C)c1ccccc1OCC(=O)NCc1ccccc1	10%	1.0%	/	-7.8	24	6.4%	/
O=C(Nc1cccc(/C=C/c2ccccn2)c1)c1ccc(-n2cncn2)c([N+](=O)[O-])c1	/	-1.2%	10	/	5	-2.5%	-0.2
COc1ccc2nc(NC(=O)CSc3nnc(N)s3)sc2c1	-16%	1.6%	-14	/	10	1.1%	-0.6
CCC(=O)O[C@@H]1CC(=O)O[C@H](C)CC=CC=C[C@@H](O)[C@H](C)C[C@H](CC=O)[C@H](O[C@H]2O[C@H](C)[C@@H](O[C@H]3C[C@@](C)(O)[C@@H](OC(=O)CC)[C@H](C)O3)[C@H](N(C)C)[C@H]2O)[C@H]1OC	-1%	/	/	3.5	-5	/	/
Cc1cc(C)c(OCC(=O)OC(C)C(=O)N2CCc3ccccc32)c(C)c1 (configuration not stated)	/	-0.9%	16	/	-3	-0.6%	3.9
CCCNC(=O)/C(C#N)=C1\N=C(NC(=O)c2ccco2)c2ccccc21	-10%	0.4%	26	/	0	0.7%	-0.6
CSc1ccc(-c2nc(CSCC(=O)NCCCN3CCCC3=O)c(C)o2)cc1	8%	3.9%	-8	2.8	9	-0.4%	-0.4
COc1cccc(/C=C/c2ccccn2)c1O	11%	-10%	/	1.5	2	1.4%	/
Cc1onc(-c2ccccc2Cl)c1C(=O)NC1CCCCCC1	-2%	/	44	7.4	-21	?	1.4
Cc1ccc(NC(=O)CCC(=O)N2CCN(S(=O)(=O)c3ccc(C)cc3)CC2)cc1	/	-3.2%	-19	/	-7	-0.6%	-0.3
Cc1ccc(-c2nnc(Nc3ccc(C(N)=O)cc3)c3ccccc23)cc1S(N)(=O)=O	/	-5.0%	-6	/	/	1.0%	-1.0

Structural class: the entries above containing a Cl atom (2)
SMILES	Sfp inh	ClpP mod	TRPML1 blocker	Menin MLL FP FL	TRPV1 potentiator	PINK1 modulator	TRPML1 agonist
N#C/C(=C(/O)CCCl)c1ccccn1	-20%	3.5%	1	-1.8	-1	1.5%	0.0
Cc1onc(-c2ccccc2Cl)c1C(=O)NC1CCCCCC1	-2%	/	44	7.4	-21	?	1.4

Going on with the list:
SMILES	Sfp inh	ClpP mod	TRPML1 blocker	Menin MLL FP FL	TRPV1 potentiator	PINK1 modulator	TRPML1 agonist
O=C1CCSc2cccc3cccc(c23)N1	9%	39%	10	5.1	12	/	0.2
CCCCc1nnc(NC(=O)CCS(=O)(=O)c2ccc(C)cc2)s1	/	-0.4%	1	/	8	0.6%	3.2
COC(=O)c1ccccc1NC(=O)Cn1nc2n(C)c3ccccc3n2c(=O)c1=O	-1%	/	/	-2.1	1	/	/
Cc1ccc(S(=O)(=O)NC(=O)C2(C)CCN2C(=O)CCc2ccc(Cl)cc2Cl)nc1 (configuration not stated)	/	1.8%	-11	/	/	-0.3%	-0.3
CC1=C(C)CC(C(=O)NC2CCN(C(C)C)CC2)C(C(=O)O)C1 (configuration not stated)	17%	-2.8%	-12	/	-1	0.8%	0.8
Cc1ccc(NC(=O)c2ccc(OC(=O)CCN3C(=O)c4ccccc4C3=O)cc2)cc1	-11%	1.7%	9	-0.9	-5	-1.1%	-0.2
CC1=C(C(=O)N2CCOCC2)CC(CC(=O)NC(c2ccccc2)c2ccccc2)C(=O)N1Cc1ccc(C(C)(C)C)cc1 (configuration not stated)	/	1.6%	3	/	/	1.3%	1.1
CC(=O)Nc1cccc(-c2cn3cccnc3n2)c1	/	4.1%	-16	/	/	-0.6%	-0.8
COc1ccc(C(=O)OCC(=O)Nc2ccc(N3CCOCC3)cc2)cc1	/	-2.5%	18	/	-13	4.2%	0.1
O=C(N/C(=C\c1ccc([N+](=O)[O-])cc1)C(=O)N1CCOCC1)c1ccco1	16%	/	20	-6.4	4	2.5%	-0.2
COc1cc2[nH]c(C(=O)NN)c(N)c2cc1OC	10%	/	/	0.0	4	/	/
O=C(OCCN1C(=O)c2cccc3c(N4CCOCC4)ccc(c23)C1=O)c1ccccc1Cl	5%	-1.8%	-3	?	-15	3.2%	?
COc1cc(C2C(C#N)=C(N)Oc3c2oc(CO)cc3=O)ccc1OC(C)C (configuration not stated)	-29%	-0.3%	6	0.8	-5	-2.8%[38.3 µM]	-0.2
CCO/N=C(/C)c1c(O)c(C)c(-c2ccccc2)n(-c2ccccc2)c1=O	21%	-2.4%	-3	2.2	-10	1.7%	0.2
COc1ccc(N/C=C/c2nc(SC)nnc2C)cc1	2%	/	15	?	5	4.1%	3.9
Cc1nn(-c2ccccc2)c(Cl)c1C1C(C#N)=C(N)OC2=C1C(=O)CC(C)(C)C2 (configuration not stated)	3%	-1.2%	-6	1.8	6	5.7%	1.0
c1ccc(CNc2nc3c(-c4ccccc4)nnn3c3ccccc23)cc1	/	4.3%	7	/	/	1.1%	-0.4
Cn1c(=O)n(C)c2cc(NC(=O)Cc3ccccc3[N+](=O)[O-])ccc21	24%	-2.5%	15	2.1	-16	-1.6%	0.3
CC(C)(C)NC(=O)C(c1ccc(O)cc1)N(C(=O)CCC(=O)Nc1nccs1)c1cccc(F)c1 (configuration not stated)	-1%	/	9	-0.4	7	-0.8%	2.1
CC(Oc1ccccc1)C(=O)OCC(=O)NC(=O)NC1CCCCC1 (configuration not stated)	/	0.3%	12	/	16	6.9%	0.2
COCn1c(-c2ccc(OC)c(OC)c2)nc2ccccc21	7%	28µM*	11	1.8	1	/	0.4
Cc1ccc(NC(=O)NCc2ccc3c(c2)OCO3)cc1	14%	0.9%	5	-3.5	-12	1.0%[38.3 µM]	0.5
O=C(COC(=O)/C=C/c1ccco1)NCc1ccc(Cl)cc1Cl	/	-0.1%	16	/	/	4.3%	-0.3
O=C(NCCc1ccccc1)C(c1ccc(F)cc1)N(C(=O)c1csnn1)C1CC1 (configuration not stated)	21%	/	-7	-0.4	24	1.4%	-0.3
O=C(CSc1nccn1-c1ccc(F)cc1)Nc1nc2ccccc2s1	/	2.4%	10	/	/	7.8%	3.8
(list continues)
SMILES	Sfp inh	ClpP mod	TRPML1 blocker	Menin MLL FP FL	TRPV1 potentiator	PINK1 modulator	TRPML1 agonist
CC(=O)NC(CC(=O)Nc1ccc(S(=O)(=O)N2CCOCC2)cc1)c1ccccc1 (configuration not stated)	/	1.1%	12	/	/	1.4%	0.5
O=C(Nc1nnc(-c2ccc(F)cc2)o1)C1CCCN1S(=O)(=O)c1cccs1 (configuration not stated)	/	/	-13	/	?	0.5%	-0.4
Cc1ccc(-c2noc(CNc3ccccc3)n2)cc1	8%	0.9%	-4	1.8	?	-1.4%[38.3 µM]	-0.3
CC(C)C[C@H]1CN=C(N(C)C)N1CC1CCCCCC1	/	-7.1%	17	/	11	0.5%	-0.1
O=C(C1CCCN(C2CC(=O)N(c3ccc(Cl)cc3)C2=O)C1)N1CCCC1 (configuration not stated)	5%	0.8%	17	/	0	0.1%	-0.3
O=C1c2ccccc2NC(c2cccc(O)c2)N1NS(=O)(=O)c1ccccc1 (configuration not stated)	24%	/	-1	-2.7	0	2.0%	0.4
CCc1ccccc1NC(=O)N1CCC(NC(=O)C(Cc2ccc(OC)c(OC)c2)NC(C)=O)CC1 (configuration not stated)	2%	0.2%	4	-2.1	26	-2.2%	0.1
N/C(CN1CCCC1=O)=N\OC(=O)c1ccccc1Cl	17%	-1.5%	-1	0.2	-12	0.1%	-0.4
O=C1C(Cl)=C(N2CCCC2)C(=O)N1c1ccc(F)cc1	4%	25µM*	-10	0.2	-1	-0.3%	1.3
CCN(CC)C(=O)N1CCN(/[N+]([O-])=N/Oc2ccc([N+](=O)[O-])cc2[N+](=O)[O-])CC1	/	/	22	/	/	-1.2%	2.1
CNCc1nc2ccccc2[nH]1	?	-0.2%	16	0.2	-2	0.9%	4.0
N#CC1=C(N)SC(N)=C(C#N)C1c1cccc(O)c1	79µM*	-9.1%	14	?	6	/	9.4
Cc1oc(-c2ccccc2)cc1C(=O)NC(Cc1c[nH]c2ccccc12)C(=O)O (configuration not stated)	40µM*	?	2	4.6	1	-1.9%	1.1
Cc1ccc(-n2c(SCC(=O)N3CCOCC3)nnc2-c2cccnc2)cc1	7%	-2.3%	-11	6.9	-10	7.4%[38.3 µM]	-0.2
CCOC(=O)N1CCN(CC(=O)Nc2sccc2C#N)CC1	11%	2.0%	-13	5.8	3	3.1%	0.4

Source: PubChem BioAssay (National Center for Advancing Translational Sciences (NCATS))
